# High-throughput results deposited in PubChem BioAssay by Broad Institute.
# FGF22 binding: FGF22 (human) thermal shift binding; Q9HCT0; recombinant FGF22 thermal shift, SYPRO orange fluorescence; percent of sucrose octasulfate shift, DMSO zero; calls only at 9.99 µM; 1.5% of 340,000 active;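 active = melting point raised past a set limit in the mean and every replicate; three in four hits are not shown here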
# Target sequence (Q9HCT0 whole entry, looked up): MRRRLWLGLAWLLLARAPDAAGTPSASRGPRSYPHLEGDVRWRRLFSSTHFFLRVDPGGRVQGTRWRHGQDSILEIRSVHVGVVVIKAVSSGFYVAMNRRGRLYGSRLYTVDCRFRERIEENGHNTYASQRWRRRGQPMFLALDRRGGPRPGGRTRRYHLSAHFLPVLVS
# rRNA inh HTS: inhibitors of bacterial rRNA selective over humanized ribosomes; GFP signal change (wild-type ribosome), % (test concentration not listed); AID 720706; 1.6% of 350,000 active; E. coli WT GFP vs humanized-ribosome RFP mutants, fluorescence, 24 h; hits give low values; DMSO median 0, no signal -100;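 active = significant combined selectivity score with lowered wild-type GFP, culture density cut under 30%, mutant RFP and density less affected; inactive = any of these conditions unmet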; also: one replicate is shown; some compounds called inactive have numbers as strong as hits
# rRNA inh HTS OD600: recorded beside rRNA inh HTS, whose call it bears; OD600 change, %; measured here: OD600 growth;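 optical density of the mix in the first replicate; 0 = DMSO median and -100 = no signal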
# rRNA inh HTS RFP: second read-out of rRNA inh HTS, no call of its own (marks repeat the call); RFP signal change, %; measured here: RFP humanized mutant strains;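 first replicate; 0 = DMSO median and -100 = no signal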
# An asterisk follows results filed as active; i = inactive. A portion of the library, so the mix of outcomes need not match the whole.
smiles,FGF22 binding,rRNA inh HTS,rRNA inh HTS OD600,rRNA inh HTS RFP
C[C@@H]1CN([C@@H](C)CO)C(=O)Cc2cc(NC(=O)CCCCCC(=O)Nc3ccccc3N)ccc2O[C@@H]1CN(C)C(=O)Nc1ccc2c(c1)OCO2,i,3,0,0.0
C[C@H](O)C#Cc1ccc([C@H]2[C@@H](CO)N3CCCCN(CC4CCOCC4)C[C@H]23)cc1,i,7,0,0.2
COc1ccc(S(=O)(=O)Nc2cccc3c2O[C@@H](CN(C)Cc2ccncc2)[C@@H](C)CN([C@H](C)CO)C3=O)cc1,i,2,6,-1.4
COc1ccc(NC(=O)Nc2ccc3c(c2)C(=O)N([C@H](C)CO)C[C@H](C)[C@H](CN(C)S(=O)(=O)c2ccc(F)cc2)OCCCC[C@H](C)O3)cc1,i,0,5,-1.8
CN1[C@@H]2c3ccc(-c4ccncc4)c(=O)n3C[C@H]1[C@H](CO)[C@H]2C(=O)N1CCC(Cc2ccccc2)CC1,i,-1,4,0.4
NS(=O)(=O)c1ccc(OCCCN2CCC(C(O)(c3ccccc3)c3ccccc3)CC2)cc1,i,11,14,4.9
C[C@@H]1CCCCO[C@H](CN(C)S(=O)(=O)c2cn(C)cn2)[C@H](C)CN([C@@H](C)CO)C(=O)c2cc(NC(=O)CCC(F)(F)F)ccc2O1,i,-3,-3,-0.9
C[C@@H]1CN([C@H](C)CO)C(=O)Cc2cc(NC(=O)Nc3ccc(F)cc3)ccc2O[C@H]1CN(C)Cc1ccncc1,i,-8,-19,2.9
CC(C)CC#Cc1ccc2c(c1)O[C@@H](CN(C)Cc1cncnc1)[C@@H](C)CN([C@@H](C)CO)S2(=O)=O,i,-5,-16,8.1
Cc1noc(C)c1NC(=O)Nc1ccc2c(c1)CC(=O)N([C@H](C)CO)C[C@H](C)[C@H](CN(C)Cc1ccc3c(c1)OCO3)O2,i,-3,-3,-3.3
C[C@@H]1CN([C@H](C)CO)C(=O)Cc2cc(NC(=O)C3CCCCC3)ccc2O[C@@H]1CN(C)S(=O)(=O)c1ccc(F)cc1,i,1,3,-2.1
CO[C@H](CN(C)C(=O)C1CCOCC1)[C@@H](C)CN(C(=O)Nc1ccc(C(F)(F)F)cc1)[C@@H](C)CO,i,-58,-80,-17
Cc1noc(C)c1S(=O)(=O)Nc1ccc2c(c1)C(=O)N([C@H](C)CO)C[C@H](C)[C@H](CN(C)Cc1ccncc1)O2,i,-3,3,-2.5
COc1ccc(NC(=O)N(C)C[C@H]2Oc3c(NC(=O)c4cc(C)nn4C)cccc3C(=O)N([C@@H](C)CO)C[C@@H]2C)cc1,i,5,-2,-1.1
CCC(=O)N1CCC2(CC1)CN(C(C)=O)[C@H](CO)c1[nH]c3cc(OC)ccc3c12,i,3,6,-4.2
Cc1noc(C)c1NC(=O)Nc1ccc2c(c1)CC(=O)N([C@@H](C)CO)C[C@@H](C)[C@H](CN(C)S(=O)(=O)c1cccs1)O2,i,4,4,-2.0
Cc1noc(C)c1NC(=O)N(C)C[C@@H]1OCCCC[C@@H](C)Oc2ccc(NC(=O)Nc3ccc(F)cc3)cc2C(=O)N([C@H](C)CO)C[C@H]1C,i,-2,-7,0.5
CN1C(=O)c2cc(NC(=O)C3CC3)ccc2OC[C@H]2O[C@@H](CC(=O)NCCc3ccncc3)CC[C@@H]21,i,2,3,-0.1
C[C@@H]1CN([C@H](C)CO)C(=O)c2cc(C3=CCCCC3)cnc2O[C@@H]1CN(C)C(=O)Cc1cccnc1,i,2,1,-1.3
CCCN(C)C[C@@H]1Oc2cc(C#C[C@@H](C)O)ccc2S(=O)(=O)N([C@H](C)CO)C[C@@H]1C,i,1,-6,-4.1
C[C@H]1CN([C@@H](C)CO)C(=O)c2cccc(NC(=O)Nc3ccc(C(F)(F)F)cc3)c2O[C@H]1CN(C)C(=O)Nc1ccc2c(c1)OCO2,i,-2,-3,1.1
O=C(c1ccccc1)N1CC[C@@H]2[C@H](CO)Nc3ccc(C#Cc4cccnc4)cc3[C@@H]21,i,-4,4,5.9
COCC#Cc1ccc2c(c1)O[C@H](CN(C)S(C)(=O)=O)[C@H](C)CN([C@H](C)CO)S2(=O)=O,i,-1,0,-3.5
CCCN1CCCCC(NC(=O)c2ccc(Cl)cc2Cl)C1=O (stereo not drawn),i,10,8,2.9
C[C@@H]1CN([C@H](C)CO)C(=O)c2cc(C#CCN(C)C)cnc2O[C@@H]1CN(C)Cc1cccc(F)c1,i,2,0,-3.9
C[C@H](CO)N1C[C@H](C)[C@@H](CN(C)C(=O)NC2CCCCC2)OCCCC[C@H](C)Oc2ccc(NC(=O)Nc3ccccc3)cc2C1=O,i,-1,-2,-1.3
COc1ccc(NC(=O)Nc2ccc3c(c2)CC(=O)N([C@H](C)CO)C[C@@H](C)[C@H](CN(C)C(=O)Nc2ccc(F)cc2)O3)cc1,i,1,6,-0.9
COc1ccc(NC(=O)N(C)C[C@@H]2Oc3c(NC(=O)c4cc(C)nn4C)cccc3C(=O)N([C@H](C)CO)C[C@H]2C)cc1,i,5,2,-1.0
CCN(C[C@@H]1[C@H](c2ccccc2)[C@@H](CO)N1CC1CC1)C(=O)c1ccccn1,i,2,4,0.4
Cc1ccc(S(=O)(=O)Nc2ccc3c(c2)C(=O)N([C@H](C)CO)C[C@@H](C)[C@H](CN(C)S(C)(=O)=O)OCCCC[C@@H](C)O3)cc1,i,1,5,7.7
CCNC(=O)C[C@@H]1CC[C@@H]2[C@@H](COc3ccc(NC(=O)c4cccc(C(F)(F)F)c4)cc3C(=O)N2C)O1,i,0,-3,-0.8
CCCNC(=O)Nc1ccc2c(c1)C(=O)N(C)C[C@H](OC)[C@H](C)CN(C(=O)C1CCOCC1)[C@H](C)CO2,i,0,-1,-1.3
C[C@H](CO)N1C[C@H](C)[C@@H](CN(C)Cc2ccc(Oc3ccccc3)cc2)Oc2c(NS(=O)(=O)c3ccc(F)cc3)cccc2C1=O,i,0,4,-3.2
CC(C)NC(=O)N1[C@H](C#N)[C@@H](c2ccc(C#CC3CC3)cc2)[C@@H]1CO,i,1,-9,-0.1
O=C(CN1CCOCC1)NCC[C@H]1CC[C@H](NS(=O)(=O)c2ccc(Cl)cc2)[C@@H](CO)O1,i,1,-3,0.2
C[C@@H]1CN([C@@H](C)CO)C(=O)c2cc(NC(=O)c3ccncc3)ccc2O[C@@H](C)CCCCO[C@@H]1CN(C)S(=O)(=O)c1ccc(Cl)cc1,i,-1,2,29
CCCN(C)C[C@H]1OCc2cnnn2CCCC(=O)N([C@H](C)CO)C[C@H]1C,i,2,2,-0.4
Cc1ccc(S(=O)(=O)N(C)C[C@H]2Oc3ccc(NC(=O)C4CCCCC4)cc3C(=O)N([C@@H](C)CO)C[C@@H]2C)cc1,i,-3,0,-0.6
Cc1noc(C)c1S(=O)(=O)N(C)C[C@@H]1Oc2ccc(NC(=O)Nc3ccc(F)cc3)cc2CC(=O)N([C@H](C)CO)C[C@H]1C,i,-7,-10,0.3
C[C@@H]1CCCCO[C@H](CN(C)Cc2ccc(C(=O)O)cc2)[C@H](C)CN([C@H](C)CO)C(=O)c2cc(NC(=O)Nc3ccccc3)ccc2O1,i,-1,3,-1.2
C[C@@H]1CN([C@@H](C)CO)C(=O)c2cc(C#CC3CC3)cnc2O[C@H]1CN(C)Cc1ccncc1,i,4,4,-0.4
C[C@@H]1CCCCO[C@@H](CN(C)CC2CCCCC2)[C@@H](C)CN([C@H](C)CO)C(=O)c2cc(NC(=O)CCCN(C)C)ccc2O1,i,2,0,1.8
CNC[C@H]1Oc2cc(C#CCN(C)C)ccc2S(=O)(=O)N([C@@H](C)CO)C[C@@H]1C,i,1,4,2.3
C[C@@H]1CN([C@@H](C)CO)C(=O)Cc2cc(NC(=O)CCCN(C)C)ccc2O[C@H]1CN(C)CC1CCCCC1,i,5,8,-1.2
COc1ccc(S(=O)(=O)N(C)C[C@@H]2Oc3ccc(NC(=O)CCC(F)(F)F)cc3C(=O)N([C@@H](C)CO)C[C@H]2C)cc1,i,4,0,-1.3
Cc1noc(C)c1NC(=O)NCC[C@H]1CC[C@@H](NC(=O)Nc2cccc(Cl)c2)[C@@H](CO)O1,i,4,12,0.4
Cc1noc(C)c1NC(=O)Nc1ccc2c(c1)C(=O)N([C@H](C)CO)C[C@@H](C)[C@@H](CN(C)Cc1ccncc1)OCCCC[C@@H](C)O2,i,3,8,1.7
CCNC(=O)C[C@H]1CC[C@@H]2[C@H](COc3ccc(NC(=O)c4ccc(F)cc4)cc3C(=O)N2C)O1,i,5,8,-0.3
COCC(=O)NC[C@@H]1[C@H](c2ccc(-c3ccccc3)cc2)[C@@H](CO)N1C(C)=O,i,-1,-5,-0.7
Cn1cnc(S(=O)(=O)N2C[C@@H](O)COC[C@@H]3O[C@@H](CC(=O)NCc4cc(F)cc(F)c4)CC[C@H]32)c1,i,-2,-1,-2.0
O=C(N[C@@H]1CC[C@@H](CCNS(=O)(=O)c2ccc(F)cc2)O[C@@H]1CO)c1cccc(F)c1,i,1,2,-2.4
C[C@@H]1CN([C@H](C)CO)C(=O)c2cc(NC(=O)NC3CCCCC3)ccc2O[C@@H](C)CCCCO[C@H]1CN(C)Cc1ccc(C(=O)O)cc1,i,2,3,-1.9
O=C(C[C@H]1C[C@@H]2c3cc(NC(=O)Nc4ccccc4F)ccc3O[C@@H]2[C@H](CO)O1)NCc1cc(F)ccc1F,i,-4,-8,-0.1
O=C(C[C@@H]1CC[C@@H]2[C@H](COC[C@@H](O)CN2Cc2ccc(Oc3ccccc3)cc2)O1)N1CCOCC1,i,-7,-8,-3.1
CO[C@H](CN(C)C(=O)C1CC1)[C@@H](C)CN(C(=O)Nc1ccc(C(F)(F)F)cc1)[C@H](C)CO,i,-62,-76,-14
CCCNC(=O)Nc1ccc2c(c1)OC[C@@H](C)N(Cc1ccccn1)C[C@@H](C)[C@@H](OC)CN(C)C2=O,i,3,4,0.3
CCCC(=O)N1CCC2(CC1)CN(Cc1cccnc1)[C@@H](CO)c1[nH]c3cc(OC)ccc3c12,i,2,-2,8.6
COc1ccc(CN(C)C[C@@H]2Oc3ccc(NC(=O)Nc4c(C)noc4C)cc3CC(=O)N([C@H](C)CO)C[C@H]2C)cc1,i,7,1,-0.8
COc1ccc(C#Cc2ccc([C@@H]3[C@H]4CN(C(=O)Nc5ccccc5)CCCCN4[C@H]3CO)cc2)cc1,i,6,11,-1.3
COc1ccc(CN(C)C[C@@H]2OCCCC[C@@H](C)Oc3ccc(NS(=O)(=O)c4ccc(F)cc4)cc3C(=O)N([C@H](C)CO)C[C@H]2C)cc1,i,6,1,3.1

# New compounds follow
smiles,FGF22 binding,rRNA inh HTS,rRNA inh HTS OD600,rRNA inh HTS RFP
COc1cccc(-c2ccc3c(c2)O[C@H](CN(C)C(=O)C2CCOCC2)[C@H](C)CN([C@H](C)CO)S3(=O)=O)c1,i,-6,-9,2.7
C[C@@H]1CN([C@H](C)CO)C(=O)Cc2cc(NC(=O)CCCN(C)C)ccc2O[C@H]1CN(C)C,i,1,2,-1.9
C[C@@H]1CN([C@H](C)CO)C(=O)Cc2cc(NC(=O)Cn3cnnn3)ccc2O[C@@H]1CN(C)C(=O)Nc1ccccc1,i,2,8,-1.0
COc1ccc(NC(=O)N[C@H]2CC[C@H](CCn3cc(-c4ccccc4F)nn3)O[C@H]2CO)cc1,i,1,2,1.0
COc1ccc(S(=O)(=O)N2C[C@@H](O)COC[C@@H]3O[C@H](CC(=O)NCCN4CCCCC4)CC[C@H]32)cc1,i,6,15,-1.1
C[C@H]1CN([C@@H](C)CO)C(=O)c2cc(C#Cc3ccccc3F)cnc2O[C@@H]1CN(C)C(=O)Cc1ccccc1,i,-3,-18,22
CC(C)NC(=O)N(C)C[C@H]1Oc2c(NC(=O)C3CCCCC3)cccc2C(=O)N([C@H](C)CO)C[C@H]1C,i,2,4,-1.7
C[C@@H]1CN([C@H](C)CO)C(=O)c2cccc(NS(=O)(=O)c3cn(C)cn3)c2O[C@@H]1CN(C)S(=O)(=O)c1cn(C)cn1,i,0,3,-0.9

# Entries of single compounds, quoted from the list. Order of screens: FGF22 binding, rRNA inh HTS, rRNA inh HTS OD600, rRNA inh HTS RFP
# Results for Cc1noc(C)c1NC(=O)N(C)C[C@@H]1OCCCC[C@@H](C)Oc2ccc(NC(=O)Nc3ccc(F)cc3)cc2C(=O)N([C@H](C)CO)C[C@H]1C = i, -2, -7, 0.5
# Results for CCCNC(=O)Nc1ccc2c(c1)OC[C@@H](C)N(Cc1ccccn1)C[C@@H](C)[C@@H](OC)CN(C)C2=O = i, 3, 4, 0.3
# Results for CCNC(=O)C[C@H]1CC[C@@H]2[C@H](COc3ccc(NC(=O)c4ccc(F)cc4)cc3C(=O)N2C)O1 = i, 5, 8, -0.3
# Results for Cc1noc(C)c1NC(=O)Nc1ccc2c(c1)CC(=O)N([C@H](C)CO)C[C@H](C)[C@H](CN(C)Cc1ccc3c(c1)OCO3)O2 = i, -3, -3, -3.3
# Results for CO[C@H](CN(C)C(=O)C1CCOCC1)[C@@H](C)CN(C(=O)Nc1ccc(C(F)(F)F)cc1)[C@@H](C)CO = i, -58, -80, -17
